# PINK1 expr mod – changes PINK1 expression | PINK1 immunofluorescence, high-content cytometry, 24 h | Potency, µM (top dose mostly 76.6 µM), for the others: at the top dose activation (PINK1 increase), hits mostly activators | 410,000 tested, 0.2% active | AID 624263; active = well fitted activation curve with a large enough effect; inconclusive = small, poorly fitted or top-dose-only effect; inactive = flat fitted curve, though single readings scatter; cell line not stated here;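 note: potency is the fitted concentration of half-maximal effect; % of control where 0% means no effect; nearly all actives have a fitted effect of over 65% in size; a mitochondrial uncoupler was the plate control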
#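 Decision-based qHTS: stable cells, 24 h exposure to five compound concentrations, CCCP as control. Fixed cells stained for PINK1 plus nuclear, mitochondrial and cell markers, cytometer read.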
# ClpP mod – qHTS Assay for Activators of ClpP; Potency, µM (top dose mostly 57.5 µM), for the others: top-dose activity change, negative = active; 340,000 tested, 1.9% active; purified B. subtilis ClpP, FRET peptide cleavage, 20 min; AID 651965, 2013; ATP-dependent Clp protease proteolytic subunit (Bacillus subtilis (strain 168)), P80244; active = well fitted falling curve with a large enough effect; inconclusive = small, poorly fitted or top-dose-only effect; inactive = no such curve, though single readings can be large or run the other way; note: potency is the fitted concentration of half-maximal effect; the source files actives as falling curves though it sought activators and does not explain the sign; nearly all actives have a fitted effect of over 65% in size; many hits overshoot -100%
# Target sequence (P80244 whole entry, looked up): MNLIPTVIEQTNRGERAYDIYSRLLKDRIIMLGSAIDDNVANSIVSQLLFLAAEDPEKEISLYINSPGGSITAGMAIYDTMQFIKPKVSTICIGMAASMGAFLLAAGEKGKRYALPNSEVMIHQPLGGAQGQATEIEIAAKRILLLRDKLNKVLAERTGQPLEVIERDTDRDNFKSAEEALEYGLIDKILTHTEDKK
#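 Buffer: 100 mM Tris/HCl pH8, 100 mM KCl, 0.05% low protease BSA, 2.5% glycerol, 0.01% Tween-20. ClpP 10 microg/mL final; 20 min RT; delta FRET normalized to ADEP and DMSO controls.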
# D2 agonist – human D2 receptor agonism in beta-arrestin assay; P14416; DiscoveRx PathHunter D2 beta-arrestin, luminescence, 90 min; 100% = 57 uM dopamine signal; activation, % (concentration not given with the values); 360,000 tested, 0.084% active; in the data active = activation above about 40%; inconclusive = about 15% to 40%; inactive = below about 15%; note: compound concentration not given in the record; the text of the record calls up to 30% inactive
# Target sequence (P14416 whole entry, looked up): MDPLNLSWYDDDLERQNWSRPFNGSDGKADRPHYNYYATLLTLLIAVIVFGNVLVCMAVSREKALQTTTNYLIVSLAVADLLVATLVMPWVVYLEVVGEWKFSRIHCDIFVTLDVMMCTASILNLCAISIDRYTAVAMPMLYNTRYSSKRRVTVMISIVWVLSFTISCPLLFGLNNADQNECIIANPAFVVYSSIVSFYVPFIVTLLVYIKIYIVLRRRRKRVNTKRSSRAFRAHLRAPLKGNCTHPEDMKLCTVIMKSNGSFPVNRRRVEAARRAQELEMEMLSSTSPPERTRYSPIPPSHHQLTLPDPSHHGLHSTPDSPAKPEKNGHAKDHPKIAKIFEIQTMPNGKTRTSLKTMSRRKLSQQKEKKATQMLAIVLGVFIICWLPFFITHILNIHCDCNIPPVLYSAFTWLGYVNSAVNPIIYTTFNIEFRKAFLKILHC
#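 DiscoveRx PathHunter D2 beta-arrestin cells (2,100/well) attached overnight, then compound-stimulated 90 min at 37 C in HBSS/10 mM HEPES/0.1% Tween-20 buffer; beta-galactosidase complementation read by luminescence after 1 h at ambient temperature. Dopamine 57 uM final (EC100) as control.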
# Sfp inh – blocks B. subtilis Sfp PPTase activity; Biochemical Sfp PPTase activity, qHTS; 310,000 tested, 3.5% active; Q9F4F7; Potency, µM, for inactives: max response, negative = inhibition, actives largely listed as inhibitors; active = well fitted inhibition curve with a large enough effect; inconclusive = small, poorly fitted or top-dose-only effect, or another doubt; inactive = no such curve, though single readings can be large or run the other way;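 note: the enzyme is Sfp with the accession as filed and its product quenches rhodamine fluorescence; potency is the fitted concentration of half-maximal effect; 0% = enzyme reaction without inhibitor and -100% = no enzyme wells; top concentration of the series not given in the record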
#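 Reaction rates are the 30-min fluorescence difference (ex 525, em 598 nm) in wells containing 15 nM Sfp, 5 uM rhodamine-CoA and 12.5 uM BHQ-2-YbbR at pH 7.6 with 10 mM MgCl2.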
# gsp antag – antagonists of gsp mutant (McCune-Albright syndrome). 340,000 tested, 0.4% active. Potency, µM (doses to about 76.9 µM), for inactives: at the highest dose activity change, negative = inhibition, actives largely listed as inhibitors. gsp-mutant cells, cAMP HTRF, 30 min; control for the full effect not named in the record. AID 624288; active = falling curve of any shape with a large fitted effect; inconclusive = falling curve, mostly with a smaller effect; inactive = flat or rising curve; cell line not stated here;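 note: intracellular cAMP measured with PDE inhibitor Ro 20-1724 present during compound exposure; potency is the fitted concentration of half-maximal effect; % is set by controls: 0 for no effect and ±100 for the full control effect; nearly all actives have a fitted effect of over 65% in size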
#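 HTRF cAMP measurement after 30 min RT detection following 30 min, 37C compound treatment alongside […] (added as 300 uM solution) in G418-selected cells seeded at 2000/well and grown 16–24 h.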
# gsp agonist – agonists of gsp mutant (McCune-Albright syndrome). gsp mutant cells, cAMP HTRF, 30 min; control for the full effect not named in the record. Potency, µM (highest dose often 76.9 µM), inactives show at the highest dose activation (cAMP increase), actives largely listed as activators. 340,000 tested, 0.13% active; active = well fitted activation curve with a large enough effect; inconclusive = small, poorly fitted or top-dose-only effect, or another doubt; inactive = no such curve, though single readings can be large or run the other way; cell line not stated here;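 note: phosphodiesterase inhibitor Ro 20-1724 added with compounds to block cAMP breakdown; potency is the fitted concentration of half-maximal effect; nearly all actives have a fitted effect of over 60% in size; about a fifth of the inactives were tested at one dose only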
#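 Cells in DMEM/10% FBS with G418 were pretreated with compounds in DMSO plus […] (300 uM stock) for 30 min at 37C. cAMP was measured by HTRF (cAMP-d2 plus anti-cAMP antibody-K) after 30 min at room temperature.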
# Menin MLL FP FL – menin-MLL binding inhibition, fluorescein peptide. Fluorescence polarization, fluorescein-MLL peptide displacement from menin. FP activity change, % at 61.4 µM. 290,000 tested, under 10 active. AID 1766; inconclusive = falling polarisation curve, or a change in total fluorescence; inactive = total fluorescence flat and polarisation flat or rising; no compound was filed as active; the % refers to the polarisation; negative = inhibition;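 note: % of control where 0% means no effect; inhibitors lower the polarisation; unlabelled MLL peptide was the positive control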
# Numbers without * were called inactive; ? = inconclusive; nt = no result given; [ ] = dose if it differs, or a comment.
SMILES,PINK1 expr mod,ClpP mod,D2 agonist,Sfp inh,gsp antag,gsp agonist,Menin MLL FP FL
O=C1CSCC(=O)N1c1ccccc1,1.2%,0.1%,1.6,-4%,-5%,-41%[inhibitor],4.5
CCCC(=O)Nc1ccc(N2CCN(C(=O)c3ccccc3C)CC2)cc1,2.5%,1.3%,-0.2,8%,9%[15.4 µM],0%,3.1
CSCC(=O)N1CCC(n2nccc2NC(=O)CCCc2ccccc2)CC1,2.6%,-1.4%,-3.3,0%,-2%,0%,nt
O=C(CN1C(=O)COc2ccccc21)Nc1ccc2c(c1)OCCO2,3.5%[38.3 µM],-0.3%,-2.0,5%,-16%,-20%,3.3
C=CCN(c1ccccc1)S(=O)(=O)c1ccc2c(c1)NC(=O)C(C)C(=O)N2 (stereo not drawn),-0.4%,0.4%,-0.7,5%,5%,-92%[inhibitor],-3.2
O=C(Cc1ccccc1[N+](=O)[O-])NCc1ccccc1Cl,4.2%[38.3 µM],0.2%,-2.9,7%,6%,-2%,0.3
CCCCN(CC)C(=O)C1CCCN(S(=O)(=O)c2cccc3nsnc23)C1 (stereo not drawn),-0.4%,nt,-4.6,17%,-12%,-11%,3.1
Cc1nn(C)c(C)c1/C=C(\C#N)S(=O)(=O)c1ccc(F)cc1,-0.3%,1.1%,-1.0,nt,nt,-18%,nt
Cc1cccnc1NC(=O)c1cc2c(=O)oc3ccccc3c2s1,11%,-4.6%,3.9,4%,1%,3%,7.0
Cc1nn(C(=O)c2ccco2)c(C)c1Sc1ccc(Br)cc1,28%,?,-4.5,12%,-12%,-29%,2.5
Cc1ccc(N2CC(C(=O)NCCc3ccc(S(N)(=O)=O)cc3)CC2=O)cc1 (stereo not drawn),-5.1%[38.3 µM],-0.5%,3.5,6%,0%,-4%,-0.8
O=C1[C@@H]2C(Cc3ccc(O)cc3)NC3(C(=O)Nc4ccc(F)cc43)[C@@H]2C(=O)N1c1ccccc1 (stereo partly drawn),1.9%,-1.9%,-3.1,-1%,4%,1%,12

# The last 2 records of the section before come first, to join the parts.
SMILES,PINK1 expr mod,ClpP mod,D2 agonist,Sfp inh,gsp antag,gsp agonist,Menin MLL FP FL
Cc1ccc(N2CC(C(=O)NCCc3ccc(S(N)(=O)=O)cc3)CC2=O)cc1 (stereo not drawn),-5.1%[38.3 µM],-0.5%,3.5,6%,0%,-4%,-0.8
O=C1[C@@H]2C(Cc3ccc(O)cc3)NC3(C(=O)Nc4ccc(F)cc43)[C@@H]2C(=O)N1c1ccccc1 (stereo partly drawn),1.9%,-1.9%,-3.1,-1%,4%,1%,12
CCOCCCn1c(=S)[nH]c2cc(C(=O)NCc3ccc(F)cc3)ccc2c1=O,12%,-1.6%,-1.8,14%,-1%,17%,2.8
COc1ccc(N2CCN(C3CCCCC3NS(=O)(=O)c3ccccc3)CC2)cc1 (stereo not drawn),1.2%,-0.6%,-2.8,6%,-3%,14%,-4.2
CCC(C)N(C(=O)COC(=O)c1cc([N+](=O)[O-])ccc1N)C1CCS(=O)(=O)C1 (stereo not drawn),-1.7%,-0.9%,-2.7,-4%,-1%,-25%,nt
O=C(CCCN1C(=O)C2CC=CCC2C1=O)Nc1cccc(F)c1 (stereo not drawn),2.6%,6.5%,-2.4,8%,6%,45%,nt
COc1ccccc1NC(=O)C1Cc2ccccc2CN1C(=O)c1ccco1 (stereo not drawn),3.3%,nt,-2.0,-5%,-1%,-1%,1.1
CC/C(Cc1ccccc1)=N/NC(=O)c1cccc(Br)c1,-0.9%,0.0%,1.7,8%,22%,2%,1.5
O=C(c1ccco1)N1CCC2(CCCN(c3ccccc3)C2)CC1,0.3%,nt,nt,-19%,nt,nt,?
COc1cc(/C=N/n2c(-c3cc(C)[nH]n3)n[nH]c2=S)cc(OC)c1OC,0.7%,nt,1.9,32µM*,2%,16%[15.4 µM],6.4
COc1ccc(CN(C(=O)c2ccco2)c2ccccc2)cc1,-2.6%,-0.8%,3.7,-1%,-3%,15%,4.9
CC1(C)CC(=O)C2=C(C1)Nc1ccccc1[S@]2=O,0.4%,nt,0.8,16%,2%,6%[15.4 µM],1.3
COc1ccc(N2C(=O)CSC23CCC(C(C)(C)C)CC3)cc1 (stereo not drawn),-1.4%[38.3 µM],-1.7%,-1.2,1%,10%,-55%[inhibitor],0.1
CCOC(=O)c1ccc(NC(=S)N(CCCN2CCCC2)Cc2ccco2)cc1,0.2%,-2.7%,0.2,-13%,-3%,14%[15.4 µM],-4.9
O=C(COc1ccc([N+](=O)[O-])cc1)Nc1ccc(NC(=O)c2ccccc2)cc1,6.1%,1.1%,-1.9,-4%,14%,-19%[15.4 µM],nt
CCc1cc(SC#N)ccc1N,9.2%,nt,-21,12%,-3%,2%[15.4 µM],-9.2
O=C(NCc1cccnc1)c1cc2nc(-c3cccs3)cc(C(F)(F)Cl)n2n1,1.7%,-11%,12,-10%,5%,20%,-3.5
NC(=O)COC(=O)[C@H](Cc1c[nH]c2ccccc12)NC(=O)c1ccc(F)cc1,1.4%,nt,-2.1,3%,-5%,?,-6.9
COCCNC(=O)C1(C)CCCN(Cc2c(C)nn(-c3ccccc3)c2C)C1 (stereo not drawn),-0.6%,-2.1%,8.8,nt,nt,nt,nt
CC(C)(C)C(=O)NCc1ccc(C(=O)CN2C(=O)NC3(CCCC3)C2=O)s1,1.2%,-0.7%,-2.2,nt,11%,4%[15.4 µM],nt
O=C1Nc2cc(C(=O)N3CCN(Cc4ccccc4)CC3)ccc2SC1N1CCOCC1 (stereo not drawn),-1.0%,-2.5%,5.4,1%,2%,14%,2.6
CC(c1nc2ccccc2c(=O)[nH]1)N(C)c1ccc2ccccc2c1 (stereo not drawn),0.8%,-9.8%,?,5%,12%,-2%[15.4 µM],1.3
CCNCCC(=O)N1c2ccccc2Sc2ccc(C(F)(F)F)cc21,0.1%,-1.8%,-7.0,-5%,-10%,-4%[15.4 µM],-2.3
COc1ccc2oc(=Nc3cccc(F)c3)c(C(N)=O)cc2c1,1.4%,nt,4.0,?,-1%,27%,1.4
CC(C)[C@H](CO)NC(=O)[C@H]1O[C@@H](n2ccc(N)nc2=O)[C@H](O)[C@@H]1O,-0.4%,-0.3%,-3.1,nt,nt,nt,nt
CN(Cc1ccccc1)C(=O)c1cccc(N2C(=O)C3CC=CCC3C2=O)c1 (stereo not drawn),1.3%,0.5%,0.4,3%,3%,28%,11
CN1OC[C@@H]2CN(S(=O)(=O)c3cccc(C(F)(F)F)c3)[C@H](c3ccc(-c4cc5ccccc5o4)cc3)C[C@@H]21,1.6%,?,-2.5,nt,nt,?,nt
O=C(CSc1nn(-c2ccccc2)c(=S)s1)Nn1cnnc1,-2.5%,-1.7%,-2.1,11%,5%,-38%[inhibitor],2.3
NC(=O)C[C@@H]1N[C@]2(C(=O)Nc3ccccc32)[C@@H]2C(=O)N(C3CCCCC3)C(=O)[C@H]12,0.0%,0.1%,0.6,21%,4%,-37%[inhibitor],1.7
O=C(O)C1CCN(S(=O)(=O)c2ccc(N3CCCC3C(=O)O)c([N+](=O)[O-])c2)CC1 (stereo not drawn),0.8%,-3.5%,-7.3,-21%,12%,30%,1.3
CC(NC(=O)C(=O)NCCCn1ccnc1)c1ccccc1 (stereo not drawn),1.4%,nt,1.4,8%,10%,-15%[15.4 µM],1.5
Nc1nnc(SCC(=O)OCc2ccc(F)cc2)s1,-0.7%,-1.1%,-2.2,13%,-1%,17%,-5.9
COc1ccc(CN(C)S(=O)(=O)c2nnc(NC(=O)c3ccc(C)cc3)s2)cc1OC,1.9%,0.1%,6.8,14%,7%,?,-0.4
N#CC1=C2SCC(O)(c3ccccc3)N2C(=O)CC1c1ccccc1 (stereo not drawn),14%,1.2%,-2.4,56µM*,-4%[15.4 µM],8%,4.1
CCOc1cc(/C=N/NC(=O)c2cccnc2)ccc1OCc1ccc(C(=O)OC)o1,-0.1%,-2.9%,6.0,-7%,-4%,?,0.6
COCCCNC(=O)Cn1ncc2ccsc2c1=O,-1.7%,0.9%,-3.0,26%,9%,-51%[inhibitor],-0.4
O=c1ccn([C@@H]2O[C@H](CNCc3cccn3-c3ccncc3)[C@@H](O)[C@H]2O)c(=O)[nH]1,2.9%,-3.9%,-6.1,nt,nt,nt,nt
CCS(=O)(=O)N1Cc2ccccc2CC1C(=O)Nc1ncc(C)s1 (stereo not drawn),3.7%,-0.1%,7.5,-3%,5%,-11%,-0.5
CCOc1ccc(-n2nnc3c(=O)n(CC(=O)NCc4ccco4)cnc32)cc1,3.8%,nt,-2.6,-23%,5%,10%[15.4 µM],0.4
O=C(O)Cc1csc(-c2ccccc2)n1,-1.0%,nt,-5.2,16%,-1%,-41%[inhibitor],0.9
Cc1sc(NC(=S)NC(=O)c2ccco2)c(C(N)=O)c1C,11%,nt,-3.1,?,-19%,-2%[15.4 µM],?
CC(=O)N1CCc2cc(S(=O)(=O)Nc3ccc(C)cc3)ccc21,1.6%,2.7%,-0.9,2%,6%,-8%[15.4 µM],2.3
Cc1csc(NC(=O)c2cccs2)n1,-0.4%,-0.4%,-1.3,-5%,-3%,-3%,-7.6
CCCCn1c(-c2ccc(Br)cc2F)nc2c1c(=O)[nH]c(=O)n2CC(C)C,-2.5%,nt,2.5,1%,-18%,-1%[15.4 µM],nt
Cc1ccc(C)c2c3c([nH]c12)-c1nonc1CC3,-0.3%,-25%,1.0,-9%,2%,3%,1.1
CC1CCCN(C(=O)Cn2nnc(-c3ccc(N(C)C)cc3)n2)C1 (stereo not drawn),-0.9%,-8.1%,-3.5,15%,3%,12%,1.8
O=C(Nc1cccc(S(=O)(=O)N2CCCCC2)c1)C1COc2ccccc2O1 (stereo not drawn),4.0%,1.2%,1.3,nt,-29%,8%,nt
Cc1ccc2c(c1)nnn2C1CCN(S(=O)(=O)c2ccc(C(=O)NC3CCCC3)cc2)CC1,11%,-1.6%,-0.4,11%,-16%,-15%,5.1
O=C(CSc1nnnn1C1CC2C=CC1C2)Nc1ccc(C(=O)O)cc1 (stereo not drawn),1.1%,-0.2%,-3.3,nt,15%,-7%[15.4 µM],nt

# Screens deposited in PubChem by National Center for Advancing Translational Sciences (NCATS).
